From PubChem
StopGo reporter: FMDV 2A StopGo reporter, luciferase signal; human cells with a luciferase reporter of 2A StopGo recoding; control for the full effect not named in the record; Potency, µM (doses to about 57.9 µM), for inactives: at the top dose signal change, negative = less light; 1.2% of 410,000 active; AID 1159524; active = well fitted falling curve with a large enough effect; inconclusive = small, poorly fitted or top-dose-only effect; inactive = no such curve, though single readings can be large or run the other way; tested in HEK293T cells; note: % is set by controls: 0 for no effect and ±100 for the full control effect; nearly all actives have a fitted effect of over 45% in size; luciferase light after 4 h
NS1 function inh: blocks influenza NS1 protein function. 0.4% of 270,000 active. Potency, µM (top dose mostly 46.1 µM), for the others: top-dose activity, positive = more growth. S. cerevisiae slowed by influenza A NS1, growth recovery by OD600. AID 2326; note: actives are rising curves; nearly all actives have a fitted effect of over 50% in size
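Growth recovery, yeast-based: influenza A NS1 expressed in S. cerevisiae causes slow growth, and suppressors are detected by OD600. The parent strain without NS1 is used as positive control.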
SARS PLP yeast: inhibitors of SARS-CoV papain-like protease in yeast. S. cerevisiae expressing SARS-CoV PLpro, growth rescue; control for the full effect not named in the record. Potency, µM (doses to about 32.9 µM), for the others: top-dose activity, positive = growth rescue. 0.19% of 330,000 active; note: 0% is about no effect; nearly all actives have a fitted effect of over 55% in size; growth read by luminescence after 48 h
Cruzain noTriton: inhibitors of Trypanosoma cruzi cruzain without detergent; purified cruzain, Z-FR-AMC fluorescence, no detergent; AID 1476; 2.3% of 200,000 active; P25779; Potency, µM, without a hit: max response, negative = inhibition, usual class: inhibitors; active = well fitted curve in the direction sought with a large enough effect; inconclusive = small, poorly fitted or top-dose-only effect, or another doubt; inactive = no such curve, though single readings can be large; an effect the other way counts as inactive or inconclusive;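 note: plate controls were enzyme without inhibitor for no effect and buffer without enzyme for full effect; nearly all actives have a fitted effect of over 40% in size; top concentration of the series not given in the record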
Target sequence (P25779 123-467 limits assumed): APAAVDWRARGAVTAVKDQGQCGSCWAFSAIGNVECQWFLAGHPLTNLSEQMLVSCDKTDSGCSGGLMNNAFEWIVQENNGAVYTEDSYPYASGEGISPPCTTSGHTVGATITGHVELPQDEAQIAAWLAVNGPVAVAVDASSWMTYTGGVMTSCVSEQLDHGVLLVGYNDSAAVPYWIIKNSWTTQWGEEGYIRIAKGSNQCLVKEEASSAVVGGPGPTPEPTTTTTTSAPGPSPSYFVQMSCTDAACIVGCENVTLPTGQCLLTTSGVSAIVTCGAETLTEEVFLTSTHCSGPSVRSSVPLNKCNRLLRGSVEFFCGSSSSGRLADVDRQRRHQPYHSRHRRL
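Detergent-free condition (0.00005% Triton X-100) in acetate buffer pH 5.5 with DTT. 1.5 nM enzyme and compound were pre-mixed 15 min, then 2 uM Z-FR-AMC substrate added; reaction progress from fluorescence change between first and third reads (60 s).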
Cruzain Triton: blocks cruzain activity in presence of Triton detergent; Potency, µM, for the others: max response, negative = inhibition, actives largely listed as inhibitors; purified cruzain, Z-FR-AMC fluorescence, 0.01% Triton; 0.43% of 200,000 active; P25779; active = well fitted curve in the direction sought with a large enough effect; inconclusive = small, poorly fitted or top-dose-only effect, or another doubt; inactive = no such curve, though single readings can be large; an effect the other way counts as inactive or inconclusive;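 note: plate controls were neutral wells for no effect and buffer without enzyme for full effect; nearly all actives have a fitted effect of over 40% in size; top concentration of the series not given in the record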
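Read-out: AMC fluorescence (360 nm excitation, 450 nm emission), four reads over 2 min, first-to-third difference used. Conditions: cruzain 1.5 nM, Z-FR-AMC 2 uM, pH 5.5 acetate, 5 mM DTT, 0.01% Triton X-100.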
MARV entry inh: blocks Marburg virus binding to or entry into cells | Potency, µM (top dose mostly 37.8 µM), for inactives: at the top dose activity change, negative = inhibition, actives largely listed as inhibitors | Marburg virus pseudotyped entry inhibition, cell reporter; control for the full effect not named in the record; about a third of the inactives were read at about 46 µM | 1.8% of 300,000 active | AID 540276; active = well fitted inhibition curve with a large enough effect; inconclusive = small, poorly fitted or top-dose-only effect, or effect the other way; inactive = flat fitted curve, though single readings scatter; tested in HEK293 cells; about a fifth of its hits are not listed in these tables; note: % is set by controls: 0 for no effect and ±100 for the full control effect; luciferase read-out
Lassa entry inh: inhibitors of Lassa virus binding or cell entry; Lassa virus pseudotype entry inhibition, cell reporter; control for the full effect not named in the record; Potency, µM (doses to about 37.9 µM), for inactives: top-dose activity change, negative = inhibition, most hits filed as inhibitors; 1.2% of 300,000 active; AID 540256; active means well fitted inhibition curve with a large enough effect; inconclusive means small, poorly fitted or top-dose-only effect, or effect the other way; inactive means flat fitted curve, though single readings scatter; tested in HEK293 cells; note: % is set by controls: 0 for no effect and ±100 for the full control effect; nearly all actives have a fitted effect of over 50% in size; luciferase read-out
RE007 growth inh: less growth of the S. pombe RE007 Vpr strain. S. pombe RE007 Vpr strain, BacTiter-Glo ATP luminescence, 24 h; control for the full effect not named in the record. Potency, µM (doses to about 92.2 µM), for inactives: top-dose activity change, negative = less growth. 0.21% of 360,000 active. AID 651644; active = well fitted falling curve with a large enough effect; inconclusive = small, poorly fitted or top-dose-only effect; inactive = no such curve, though single readings can be large or run the other way;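 note: % is set by controls: 0 for no effect and ±100 for the full control effect; nearly all actives have a fitted effect of over 50% in size; the assay follows cell death caused by Vpr and the record does not say whether a fall means rescue or toxicity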
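Fission yeast RE007 carrying one integrated HIV-1 vpr copy, seeded at OD 0.01 in PMG+AL medium with 23 nL pinned compound. Grown 24 h at 30 degrees; viability read by BacTiter-Glo luminescence after 5 min.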
Starred values were filed as active, the others as inactive; u = inconclusive; x = not tested or not shown; & = joins results of further samples; [ ] = another dose, or the depositor's remark. Unless noted, calls come from the whole dose curve; as a rule, active means well fitted rising curve with a large enough effect; inconclusive means small, poorly fitted or top-dose-only effect; inactive means no such curve, though single readings can be large or run the other way. Potency is the fitted concentration of half-maximal effect.

SMILES	StopGo reporter	NS1 function inh	SARS PLP yeast	Cruzain noTriton	Cruzain Triton	MARV entry inh	Lassa entry inh	RE007 growth inh
CCC1CCCCN1C(=O)CCc1nnc(C2CCCCC2)o1 (stereo not given)	15%	-1%	1%	x	x	u	13%[46.1 µM]	-3%
COc1ccccc1N1CCN(C(=O)c2oc3ccccc3c2C)CC1	6%	-28%	-2%	26%	2.3%	u	u	0%
CCCCN(C)CCCNC(=O)C1CCN(c2nc3ccc(CC)cc3s2)CC1	6%	x	x	3%	-5.1%	u	u	x
CCOc1ccc(CCNc2ncnc3onc(-c4ccc(F)cc4)c23)cc1OCC	u	x	x	u	-6.9%	x	u	x
COc1ccc(-c2[nH]c3ccccc3c2SCCNC(=O)c2ccccc2)cc1	0%	5%	8%	u	-4.1%	u	u	15%
O=C(CSc1nc2sccc2c(=O)[nH]1)N1CCN(c2ccccc2)CC1	-13%	13%	-3%	x	x	x	x	3%
CC(C(=O)OCC(=O)c1ccc(Br)cc1)N1C(=O)C2C3C=CC(C3)C2C1=O (stereo not given)	-4%	-1%	2%	x	x	-26%[46.1 µM]	0%[46.1 µM]	1%
Cc1cccc(NC(=O)Cn2c(SCC(=O)NCc3ccccc3)nc3ccccc32)c1C	-7%	x	x	2%	-0.5%	x	u	x
CC(C)(C)c1ccc(C(=O)Nc2ccc(NC(=O)c3ccc(Cl)c(Cl)c3)cc2)cc1	-4%	x	x	-5%	0.1%	x	17%[46.1 µM]	x
CC(C)CN1CCN(Cc2cc3ccccc3[nH]2)CC1CCO (stereo not given)	7%	15%	-4%	x	x	-13%[46.1 µM]	-8%[46.1 µM]	-24%
Fc1cccc(Cl)c1CNn1cn[nH]c1=S	-5%	5%	1%	x	x	x	x	-4%
Cc1ccc(C)c(CN2C(=O)c3ccccc3S(=O)(=O)c3ccc(C(=O)N4CCN(C)CC4)cc32)c1	16%&16%	11%	6%	1%	1.3%	4%&4%[46.1 µM]	u	16%
CC(=O)C1=C(C)NC(C)=C(C(C)=O)C1c1ccccc1	9%	-2%	0%	x	x	-1%[46.1 µM]	0%	10%
COc1cc(-c2nc(C(=O)NC3CCCCC3)cc3c2[nH]c2ccccc23)cc(OC)c1OC	-19%	u	-6%	x	x	x	x	1%
Cc1ccccc1Cn1c(=O)sc2ccccc2c1=O	-26%	x	0%	x	x	-17%[46.1 µM]	1%[46.1 µM]	-10%
Cc1ccc(Cl)cc1N1CCN(c2ncnc3onc(C)c23)CC1	u	x	x	4%	0.6%	x	u	x
O=C(Oc1ccccc1C(=S)N1CCOCC1)c1ccccc1	16%	19%	3%	x	x	3%[46.1 µM]	-6%	4%
Cc1ccc(C(C(=O)NCc2ccco2)N(C(=O)CNC(=O)c2cccs2)c2ccc(C)cc2)cc1 (stereo not given)	9%	6%	-15%	-12%	3.4%	-15%	-1%	14%
COc1ccc(CSc2nnc(Cc3sc(-c4ccccc4)nc3-c3ccccc3)o2)cc1	0%	8%	-1%	u	1.5%	-13%	-18%	-3%
Cc1ccc(-n2cc(CN3CCN(c4ccccn4)CC3)c(-c3ccc(F)cc3)n2)cc1	-6%	2%	-4%	x	x	u	u	-13%
C/C(=N\Nc1cc(C(F)(F)F)ccc1Cl)c1ccccc1O	-12%	-9%	11%	-15%	-14%	-1%	-27%	x
CCC(=O)N1c2ccc(S(=O)(=O)N3CCCCCC3)cc2CC1C (stereo not given)	21%	x	x	-1%	-4.3%	9%[46.1 µM]	13%[46.1 µM]	x
CC1CC(C)CN(S(=O)(=O)c2ccc3c(c2)n(C)c(=O)c(=O)n3C)C1 (stereo not given)	-8%	-2%	0%	x	x	-1%[46.1 µM]	1%	-1%
CCCCS(=O)(=O)N1CCCC(C(=O)Nc2ccc(Cl)cn2)C1 (stereo not given)	-25%	3%	-13%	x	x	x	x	-2%
COc1ccc(C(=O)NC(=S)Nc2nnn(C)n2)cc1	22%	3%	1%	8%	-4.4%	u	6%	x
Cc1ccc(N2C(=O)NC(=O)/C(=C\C=C\c3ccco3)C2=O)cc1C	u	29%	-7%	2%	-5.2%	u	u	53%
CCOC(=O)c1cnc2c(C)cc(C)cc2c1NCCN1CCOCC1	-13%	x	x	-6%	-3.8%	x	-14%[46.1 µM]	x
CN(C(=O)CCOc1ccccc1)c1c(N)n(Cc2ccccc2)c(=O)[nH]c1=O	-5%	x	-6%	x	x	8%[46.1 µM]	-19%	-20%
CCN(CC)c1ccc(C(=O)NC(=S)N2CCN(Cc3ccc4c(c3)OCO4)CC2)cc1	-19%	-38%	-26%	0%	-4.9%	2%	-4%	1%
COc1ccccc1CNC(=O)CN1C(=O)c2cccc(N)c2C1=O	12%	-11%	2%	x	x	14%[46.1 µM]	u	9%
Brc1ccc(/C=N/Nc2ccccn2)cc1	16%	x	0%	x	x	u	13%[46.1 µM]	-10%
O=C(CN(C(=O)CCC(=O)Nc1ccccn1)C1CCCC1)NCc1ccccc1	14%	7%	-1%	x	x	-4%[46.1 µM]	18%	0%
O=c1c2cc3c(=O)n(-c4ccccc4O)c(=O)c3cc2c(=O)n1-c1ccccc1O	7%	-3%	-13%	x	x	-9%[46.1 µM]	11%[46.1 µM]	-25%
CCC(=O)Oc1ccc2oc(=O)cc(C)c2c1	23%	4%	1%	-12%	-1.5%	u	8%	-6%
COC(=O)c1ccc(NC(=O)CN2C(=O)CNC2=O)cc1	10%	-7%	13%	0%	-1.1%	18%[46.1 µM]	3%	25%
O=C(O)CN1C(=O)/C(=C/c2ccccc2Br)Oc2ccccc21	-8%	u	-3%	x	x	x	x	19%
CCOc1ccccc1C1CC(=O)Nc2c1c(=O)n(C)c(=O)n2C (stereo not given)	-3%	16%	7%	-16%	5.7%	x	x	-8%
O=C(NC(=S)NCCN1CCOCC1)c1cccc(Cl)c1	7%	3%	2%	-1%	1.0%	9%	-3%	-15%
O=C(C1CCCN(S(=O)(=O)Cc2ccccc2)C1)N1CCC(Cc2ccccc2)CC1 (stereo not given)	40µM*	-46%	-14%	25%	0.9%	-28%	-17%	-7%
O=C(CN(C1CCCCC1)S(=O)(=O)c1ccc(F)cc1)NCc1ccncc1	37%[activator]	0%	-5%	3%	2.1%	2%	18%	0%
Cc1ccc2[nH]cc(C(c3ccccc3)c3ccc(C)s3)c2c1 (stereo not given)	u	x	x	-24%	-2.7%	u	u	x
c1ccc2c(c1)ccc1ncccc12	-4%	x	2%	-13%	-5.9%	x	x	-7%
COc1ccc(CN2CCN(S(=O)(=O)c3ccc(NC(C)=O)cc3)CC2)cc1OC	x	2%	4%	11%	2.2%	0%&3%	u	0%
Cc1csc(=Nc2c(C)n(C)n(-c3ccccc3)c2=O)n1Cc1ccccc1	-8%&-20%	2%	0%	-2%	1.9%	6%&-8%	-6%&4%	4%&11%
CCCCNC(=S)Nc1ccccc1Cc1ccccc1	14%	x	-2%	x	x	-14%[46.1 µM]	-8%	27%
COc1ccc(C(=O)N2CCN(S(=O)(=O)c3cc(Cl)ccc3OC)CC2)cc1	0%	-34%	-1%	u	0.5%	-6%&-6%[46.1 µM]	-16%	-1%
Cc1ccccc1-n1nc2c(c1NC(=O)c1ccco1)CS(=O)(=O)C2	-4%	-4%	-5%	x	x	u	1%[46.1 µM]	-6%
COC(=O)[C@@H](NCc1cccc(CN[C@H](C(=O)OC)c2ccccc2)c1)c1ccccc1	u	-18%	-13%	x	x	x	x	-7%
O=C(OCC(=O)N1N=C(c2ccc(Cl)cc2)CC1c1ccco1)c1ccco1 (stereo not given)	-17%	-19%	1%	x	x	11%[46.1 µM]	u	34%
COc1cccc(C(=O)Nc2nc(SCc3ccc(Cl)cc3)n[nH]2)c1	23%	-5%	0%	x	x	0%[46.1 µM]	6%	-3%

Following part:
SMILES	StopGo reporter	NS1 function inh	SARS PLP yeast	Cruzain noTriton	Cruzain Triton	MARV entry inh	Lassa entry inh	RE007 growth inh
Cc1ccc(NC(=S)N2CCCC2)cc1C	-2%	0%	8%	x	x	u	27%[46.1 µM]	-18%
O=C1CC(C(=O)NC2CCCCC2)C2(CCCCC2)O1 (stereo not given)	-4%	-1%	0%	x	x	x	x	6%
O=C(NCc1cccnc1)/C(=C/c1ccc(-c2ccc(Cl)cc2)o1)S(=O)(=O)c1ccccc1	3.5µM*	-18%	-9%	-2%	-5.2%	u	18µM*	-4%
Cc1cc(=O)oc2cc(NC(=O)c3cccc(S(C)(=O)=O)c3)ccc12	0%	17%	0%	x	x	5%[46.1 µM]	x	-22%
NC(=O)c1ccc(CSc2nc3ccccc3s2)cc1	8%	3%	-3%	x	x	u	u	12%
O=C(Nc1cnn(Cc2ccc(Cl)cc2Cl)c1)c1cc(-c2cccs2)on1	-16%	-67%	-2%	u	-17%	u	u	-6%
Cc1ccc(OCCn2cc(C(=O)C3CCCCC3)c3ccccc32)cc1	-15%	x	x	-24%	-7.1%	-13%[46.1 µM]	u	x
Cc1ccc(NS(=O)(=O)c2cn(C)c(C)n2)c(Br)c1	-21%	x	x	-5%	-1.1%	x	-9%[46.1 µM]	x
CCOC(=O)C1CCCN(S(=O)(=O)c2cc(OCC(=O)NC3CCCCC3)c(C)cc2Cl)C1 (stereo not given)	u	1%	-3%	u	1.8%	u	u	-1%
COC(=O)c1c(-c2ccc(Cl)cc2)noc1N1CCN(c2cccc(OC)c2)CC1	u	x	x	-9%	4.7%	x	12%[46.1 µM]	x
CCCCNC(=O)c1cc2n(n1)CCCN(Cc1ccc(C)cc1)C2=O	15%	x	x	12%	1.7%	x	25%[46.1 µM]	x
O=C(Cc1ccc(F)cc1)NCCc1csc2nc(-c3ccccc3F)nn12	-12%	x	x	2%	-2.2%	x	-11%[46.1 µM]	x
Cc1cc2nn(-c3ccc(F)cc3)nc2cc1NC(=O)c1cccc2ccccc12	5%	x	x	-14%	1.3%	-5%[46.1 µM]	9%[46.1 µM]	x
O=C(NCc1ccccc1)c1cnc2n(c1=O)CCS2	-3%	3%	7%	-5%	0.1%	15%[46.1 µM]	14%	-2%
